From PubChem BioAssay
D2 potentiator = positive allosteric modulators of human D2 dopamine receptor. potentiation, % (concentration not given with the values). P14416. DiscoveRx D2 beta-arrestin cells, luminescence, 90 min; 100% = 57 uM dopamine signal. hit rate 0.23% among 360,000; active = potentiation of 50% or more; inconclusive = 30% to 50%; inactive = 30% or less;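 also: compound concentration not given in the record; tested on top of an EC20 dose of dopamine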
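PathHunter D2 cells, attached overnight at 37 deg C, received compound in DMSO plus dopamine at EC20 (50 nM final) for 90 min at 37 deg C. Beta-arrestin recruitment was read as luminescence after 1 h with detection reagent at ambient temperature.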
TRPV1 PAM = enhances activation of the human vanilloid receptor TRPV1; Q8NER1; TRPV1-expressing cells, Fluo-8 calcium influx, capsaicin EC20 potentiation; host cell line not named in the record; control for the full effect not named in the record; potentiation, % at 8.33 µM; hit rate 0.02% among 320,000; AID 540277; active means potentiation above 80%; inconclusive means 30% to 80%; inactive means below 30%; also: 0% is about no effect
Target sequence (Q8NER1 whole entry, looked up): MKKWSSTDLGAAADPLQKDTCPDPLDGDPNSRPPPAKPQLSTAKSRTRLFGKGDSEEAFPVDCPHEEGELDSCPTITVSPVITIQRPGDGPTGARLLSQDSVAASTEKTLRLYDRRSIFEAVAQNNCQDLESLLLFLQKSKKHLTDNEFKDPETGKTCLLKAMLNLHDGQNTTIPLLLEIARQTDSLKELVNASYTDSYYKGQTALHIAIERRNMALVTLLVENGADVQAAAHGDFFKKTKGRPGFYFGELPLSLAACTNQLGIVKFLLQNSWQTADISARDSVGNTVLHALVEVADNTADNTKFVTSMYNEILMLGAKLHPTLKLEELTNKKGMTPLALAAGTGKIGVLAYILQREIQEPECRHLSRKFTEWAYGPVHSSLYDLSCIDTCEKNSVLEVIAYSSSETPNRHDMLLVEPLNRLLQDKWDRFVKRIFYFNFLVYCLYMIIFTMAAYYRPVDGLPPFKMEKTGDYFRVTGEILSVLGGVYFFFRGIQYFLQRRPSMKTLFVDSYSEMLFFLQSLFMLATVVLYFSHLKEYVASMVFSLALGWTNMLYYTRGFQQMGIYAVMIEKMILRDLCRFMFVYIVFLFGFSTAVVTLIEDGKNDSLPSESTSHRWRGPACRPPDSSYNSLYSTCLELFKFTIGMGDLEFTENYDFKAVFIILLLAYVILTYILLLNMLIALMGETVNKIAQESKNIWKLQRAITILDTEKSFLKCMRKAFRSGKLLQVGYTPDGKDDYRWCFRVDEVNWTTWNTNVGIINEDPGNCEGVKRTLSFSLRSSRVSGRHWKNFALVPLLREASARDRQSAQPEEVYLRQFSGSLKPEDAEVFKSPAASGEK
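Cells expressing TRPV1 were dye-loaded with Fluo-8 and read kinetically: 10 s baseline, 3 min after compound (agonist portion), then 2 min after EC20 capsaicin (allosteric enhancer portion). Calcium-bound dye fluorescence at 480/520 nm.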
D2 agonist = agonists of human D2 dopamine receptor (beta-arrestin); DiscoveRx PathHunter D2 beta-arrestin, luminescence, 90 min; 100% = 57 uM dopamine signal; AID 624465; P14416; hit rate 0.084% among 360,000; activation, % (concentration not given with the values); in the data active = activation above about 40%; inconclusive = about 15% to 40%; inactive = below about 15%; also: compound concentration not given in the record; the text of the record calls up to 30% inactive
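Agonist mode: compounds alone added to overnight-plated D2 PathHunter cells for 90 min at 37 C, with 57 uM final dopamine (EC100) defining full response. Beta-arrestin recruitment detected by chemiluminescent reagent, read after 1 h at ambient temperature.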
Six1-Eya2 inh = inhibitors of human Six1/Eya2 interaction. AlphaScreen GST-Six1/His-Eya2 binding, biochemical; active compounds read low; control for the full effect not named in the record. activity change, % (test concentration not listed). Q15475+O00167. hit rate 0.56% among 360,000; in the data active = activity change below about -65%; inconclusive = about -30% to -65%; inactive = above about -30%; also: % is scaled to controls: 0 for no effect and ±100 for the full control effect
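GST-Six1 + His-Eya2 (5X stock: 250/500 nM); Tris pH 8.0, 300 mM NaCl, 0.05% BSA, 0.02% Tween 20; GSH donor/Ni acceptor beads; 1 h 37 °C dark; AlphaScreen readout.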
Sfp inh = inhibitors of Bacillus subtilis Sfp phosphopantetheinyl transferase; Q9F4F7; Biochemical Sfp PPTase activity, qHTS; Potency, µM, for inactives: max response, negative = inhibition, most hits filed as inhibitors; hit rate 3.5% among 310,000; AID 1490; active = well fitted inhibition curve with a large enough effect; inconclusive = small, poorly fitted or top-dose-only effect, or another doubt; inactive = no such curve, though single readings can be large or run the other way;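 also: the enzyme is Sfp with the accession as filed and its product quenches rhodamine fluorescence; potency is read from the fitted curve at half-maximal effect; 0% = enzyme reaction without inhibitor and -100% = no enzyme wells; top concentration of the series not given in the record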
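Sfp 15 nM + cpd, 15 min RT; start w/ rhodamine-CoA 5 uM, BHQ-2-YbbR 12.5 uM (final); 50 mM Hepes pH 7.6, 10 mM MgCl2, 0.01% NP-40, 0.01% BSA; read 525/598 nm at 0 and 30 min.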
PINK1 modulator = PINK1 expression modulation | PINK1 immunofluorescence, high-content cytometry, 24 h | Potency, µM (series often up to 76.6 µM), for the others: at the top dose activation (PINK1 increase), actives largely listed as activators | hit rate 0.2% among 410,000 | AID 624263; active = well fitted activation curve with a large enough effect; inconclusive = small, poorly fitted or top-dose-only effect; inactive = flat fitted curve, though single readings scatter; cell line not stated here;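 also: potency is read from the fitted curve at half-maximal effect; % of control where 0% means no effect; nearly all actives have a fitted effect of over 65% in size; a mitochondrial uncoupler was the plate control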
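Compound titrations (5 concentrations, 24 h) on a stable cell line; DMSO and CCCP controls. Endpoint: fixed-cell PINK1 immunofluorescence with mitochondrial, cell and nuclear markers, scanned by microplate cytometer.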
CtBP-E1A blk = blocks the CtBP interaction with E1A | activity change, % (concentration not given with the values) | AID 651724 | hit rate 0.49% among 340,000 | AlphaScreen GST-E1A/His-CtBP binding, 1536-well; active compounds read low; control for the full effect not named in the record; in the data active means activity change below about -65%; inconclusive means about -30% to -65%; inactive means above about -30%; also: % is scaled to controls: 0 for no effect and ±100 for the full control effect
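Protein mix (5X: 125 nM each GST-E1A, His-CtBP) was incubated with pinned compound 2 h at 37 deg C in dark, in 50 mM Tris pH 8.0 buffer with 300 mM NaCl. Glutathione donor and nickel acceptor beads followed; AlphaScreen signal read after 1 h.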
Numbers without * were called inactive; ? = inconclusive; . = no result given; [ ] = another dose, or the depositor's remark.

SMILES	D2 potentiator	TRPV1 PAM	D2 agonist	Six1-Eya2 inh	Sfp inh	PINK1 modulator	CtBP-E1A blk
CC1CN(S(=O)(=O)c2ccc(NC(=O)c3cc(-c4ccccc4O)n[nH]3)cc2)CC(C)O1 (stereo not drawn)	-1	-11	1.7	-15	18%	?	-29
CSc1cnn(Cc2ccccc2)c(=O)c1SCc1ccccc1	-16	-8	-3.8	8	3.2µM*	1.6%	-18
Cc1cccc(C(=O)c2c(N)sc3c2CCCC3)c1	2	-2	6.4	-3	45µM*	9.8%	-12
O=C(NCCCN1CCCC1=O)c1cc(-c2ccc(F)cc2)nc2ccccc12	-1	.	-2.5	2	.	-1.0%	-17
COc1cccc(-c2nn(-c3ccccc3)cc2CN(C)C(C)c2ccncn2)c1 (stereo not drawn)	-12	-9	7.4	-12	-17%	2.5%	-10
OCC[C@@H]1C[C@@H](O)[C@H](O)[C@]2(Cc3ccccc3O2)O1	-4	-7	-7.6	6	1%	-0.4%	9
O=C(COc1nnc2ccccn12)N1CCN(S(=O)(=O)c2ccccc2)CC1	6	.	-1.1	3	.	-0.6%	0
COc1ccccc1CNS(=O)(=O)c1cc(-c2cc(C)no2)ccc1C(C)C	-6	2	-1.7	3	-8%	1.5%	7
Cc1cc2nc(-c3ccncc3)cc(C(F)(F)F)n2n1	-5	-5	-4.1	24	21%	-0.4%	-1
Cn1c(NC(=O)CC(C)(C)C)cc(=O)n(C)c1=O	-8	-9	-4.2	-10	-7%	0.8%	0
COCCNC(=O)C(=O)NCC1OCCN1S(=O)(=O)c1ccc(C)cc1 (stereo not drawn)	7	?	-3.1	1	10%	-0.3%	-3
Cc1ccc(NC(=O)CSc2nncc3ccccc23)cc1	-3	0	1.1	5	2%	-0.3%	-1
COc1ccccc1N1CCN(CCCCOc2cccc3ccccc23)CC1	-42	3	0.6	?	-18%	19%	?
CCOC(=O)C1C(=O)NC(C)C1c1ccccc1 (stereo not drawn)	-7	-7	-0.4	1	18%	-0.9%	11
COc1ccc(Cl)cc1-c1n[nH]c(=S)n1C1CCCCC1	-20	4	0.5	-1	12%	-1.0%	-3
CSc1nc2c(c(-c3ccccc3)c1C#N)CCC2	-5	.	0.0	-1	.	.	5
Cc1ccc(OCC(=O)N/N=C/C=C/c2ccco2)cc1C	4	3	-5.3	-22	45µM*	-1.0%	0
Cc1ccc(S(=O)(=O)NC(CC(C)C)C(=O)NCC(c2ccco2)N2CCCCC2)cc1 (stereo not drawn)	-5	-5	-1.9	-1	.	-0.2%	-10
C=CCOc1ccc2c(c1)C(=NO)c1cc(OCC=C)ccc1-2	-5	18	-0.1	-14	-10%	14%	-11
Cc1cccc(NC(=S)NC(NC(=O)OCc2ccccc2)C(Cl)(Cl)Cl)c1 (stereo not drawn)	-14	-7	-1.7	-1	17%	.	8
COc1ccc(C2(CNC(=O)Cc3ccc(OC)c(OC)c3)CCCC2)cc1	-18	2	-5.0	0	27%	-0.3%	-18
O=C(Nc1ccon1)C12CC3CC(C1)CC(n1cnc([N+](=O)[O-])n1)(C3)C2	-6	0	2.4	2	-5%	-1.8%	.
O=C(Nc1ccccc1F)Nc1ccccc1F	1	5	-0.1	-2	21%	1.0%	11
O=C(CN1C(=O)c2ccccc2S1(=O)=O)NCc1ccccc1Cl	-11	-4	-4.5	2	17%	1.6%	1
CC(=O)Nc1cccc(C(=O)N/N=C/c2cccnc2)c1	-16	-6	-3.8	-1	16%	-1.3%	0
CCN1C(=O)[C@@H]2[C@@H](c3ccc(SC4CCCCC4)cc3)N3CCC[C@@]3(C(=O)OC)[C@@H]2C1=O	-5	24	-1.1	-13	.	4.0%	.
CCN1C[C@@H]2[C@@H]3C(=O)N(Cc4ccccc4)C(=O)[C@@H]3[C@](C)(C1=O)N2C(=O)c1ccc(F)cc1	-8	.	-1.8	3	.	-1.7%	11
O=C(N/N=C/c1ccc([N+](=O)[O-])o1)c1cc2ccccc2o1	-15	29	14	-13	7%	0.9%	.
Cc1cccc(NC(=O)NC2CC3CCC(C2)N3Cc2ccco2)c1 (stereo not drawn)	-27	3	-3.3	3	14%	1.5%	-6
CC(=O)CC1c2cc(F)ccc2C=C(c2ccsc2)N1c1ccc(-c2cccnc2)cc1 (stereo not drawn)	.	.	.	14	.	0.1%	7
CCCCCSc1nnc(-c2cc(Br)ccc2N)c(=O)[nH]1	0	-12	-3.7	-10	5%	0.5%	-11
COC(=O)CN(C(=S)Nc1ccccc1)C1CC(=O)N(c2ccc(OC)cc2)C1=O (stereo not drawn)	-23	-8	-2.5	5	2%	1.5%	-4
CCc1ccc(OC)c(S(=O)(=O)NCc2cccs2)c1	-8	-10	-5.6	14	.	1.2%	.
CN(C)c1nc(-c2cccs2)cc(C(F)(F)F)c1C#N	-4	3	1.1	112	11%	2.9%	105
Cc1ccc(S(=O)(=O)N(C)c2ccc(OC(=O)c3cc(=O)[nH]c4ccccc34)cc2)cc1	-3	.	9.6	11	.	1.3%	2
O=C(NCCCc1ccccc1)C1CCC(CNc2c(N3CCCCC3)c(=O)c2=O)CC1 (stereo not drawn)	-17	10	-4.2	-10	1%	-2.4%	-11
CC1Nc2ncnc(N3CCc4ccccc4C3)c2N(Cc2ccccc2)C1=O (stereo not drawn)	-6	.	-6.8	-6	.	1.7%	-6
FC(F)(F)c1cc(-c2cccs2)nc(-n2cc(Cl)cn2)n1	17	-16	-5.1	-9	7%	1.5%	-13
OC(c1cccc(Cl)c1)c1nc(-c2cccc3cccnc23)cs1 (stereo not drawn)	-6	.	-3.6	-7	.	8.0%	2
Cc1nc2ccc(NC(=S)N3CCC(C)CC3)cc2nc1C	-5	-4	-4.9	-1	15%	2.1%	6
C=CCn1c(=O)c(C(=O)Nc2ncccc2C)c(O)c2ccccc21	-14	.	-0.9	-10	.	1.3%	-16
COc1ccc2c(c1)C(=O)N1[C@H]3c4cc(OC)ccc4OC[C@@H]3[C@H](c3ccccc3)[C@]1(C)C(=O)N2	-17	18	-2.5	-19	.	4.3%	-20
O=C1C=C(O)c2cccc(O)c2C1=O	-8	3	2.6	-8	-6%	-0.9%	-8
CCOc1ccc(-c2csc(Cn3c(CN4CCN(C)CC4)nc4ccccc4c3=O)n2)cc1	19	-7	1.9	-12	?	0.1%	-10
Cc1ccc(SCC(=O)OCC(=O)NCCc2ccccc2)cc1	2	-7	-1.0	11	.	-0.9%	.
COc1ccc(OC)c(NC(=O)CSc2nc3nc(C)cc(C)n3n2)c1	-11	2	-1.0	-2	.	1.0%	-18
CCOc1ccc(-c2cc(C(=O)NCCCN3CCOCC3)c3ccccc3n2)cc1	-15	-2	-3.7	-4	2%	-1.3%	1
Cc1cc2ccccc2n2c(SCC(=O)Nc3ccc(S(=O)(=O)N4CCC(C)CC4)cc3)nnc12	-5	10	1.0	-26	9%	-0.4%	-26
Cc1ccc(S(=O)(=O)N(CC(=O)Nc2ccc(F)cc2)C(=O)N2CCN(C)CC2)cc1	-12	-10	-4.1	5	.	-0.5%	-4
CCn1cc(Cl)c(C(=O)Nc2c(C)nn(Cc3c(F)c(F)c(F)c(F)c3F)c2C)n1	-5	-1	0.6	5	17%	-0.1%	6
Cc1ccc2c(c1)c1c(n2CC(O)Cn2nc(C)c(Br)c2C)C(=O)CCC1 (stereo not drawn)	-11	.	-3.1	8	6%	-0.9%	7
CCC(CC)=NNc1ccc(S(N)(=O)=O)cc1[N+](=O)[O-]	1	-1	0.1	-8	-2%	-0.3%	-6
NC(=O)c1ccc(NS(=O)(=O)c2ccc(S(=O)(=O)N3CCCC3)cc2)cc1	-1	.	-0.1	-3	.	0.3%	0
S=C(NCC1CCCO1)N1CCN(c2ccc(Cl)c(Cl)c2)CC1 (stereo not drawn)	-23	-1	1.2	2	5%	-1.0%	-21
Cc1ccc(C)c(NC(=O)NC2CCCCCCC2)c1	-18	-20	-2.4	3	13%	3.0%	-3
Cc1ccc(N(C(=O)Cn2nnc3ccccc32)C(C(=O)NCc2ccco2)c2cccnc2)cc1 (stereo not drawn)	-10	6	-0.6	-13	-9%	4.5%	-1
CCOC(=O)N1CCN(C(=S)Nc2cc(S(=O)(=O)N3CCOCC3)ccc2Cl)CC1	6	-5	5.2	1	2%	1.1%	3
CC(CCc1ccccc1)N1CCN(Cc2ccccc2)CC1 (stereo not drawn)	-41	?	-0.5	-9	-3%	2.6%	-23
CCc1sc(C(=O)NCCc2ccc(S(N)(=O)=O)cc2)cc1Br	-11	-1	0.8	-8	7%	3.3%	-14
Cc1ccc(S(=O)(=O)N2CCOC23CCN(S(=O)(=O)c2c(C)cc(C)cc2C)CC3)cc1	-4	-1	-2.9	0	.	-1.7%	0

Next section; it opens with the 4 that closed the last part.
SMILES	D2 potentiator	TRPV1 PAM	D2 agonist	Six1-Eya2 inh	Sfp inh	PINK1 modulator	CtBP-E1A blk
CCOC(=O)N1CCN(C(=S)Nc2cc(S(=O)(=O)N3CCOCC3)ccc2Cl)CC1	6	-5	5.2	1	2%	1.1%	3
CC(CCc1ccccc1)N1CCN(Cc2ccccc2)CC1 (stereo not drawn)	-41	?	-0.5	-9	-3%	2.6%	-23
CCc1sc(C(=O)NCCc2ccc(S(N)(=O)=O)cc2)cc1Br	-11	-1	0.8	-8	7%	3.3%	-14
Cc1ccc(S(=O)(=O)N2CCOC23CCN(S(=O)(=O)c2c(C)cc(C)cc2C)CC3)cc1	-4	-1	-2.9	0	.	-1.7%	0
CCCCN1C(=O)C(O)=C(C(C)=O)C1c1ccc(OC)cc1OC (stereo not drawn)	3	1	-1.3	6	-16%	1.5%	-9
O=C(Cn1nnc2ccccc21)N/N=C\C=C\c1ccccc1	-3	2	0.1	-4	9%	-0.1%	-9
COc1cccc(NC(=O)CN(C)C(=O)CC(NC(=O)c2ccccc2Cl)c2ccccc2)c1 (stereo not drawn)	-5	-3	-0.8	0	.	3.0%	5
COc1cccc(-n2c(SCC(N)=O)nc3ccccc3c2=O)c1	4	6	-0.6	2	21%	1.6%	-4
CCOC(=O)c1cnc2c(C)cccc2c1NCc1ccco1	-17	27	1.7	7	-25%	-5.1%[38.3 µM]	16
O=C(COC(=O)c1ccc(F)c(S(=O)(=O)N2CCOCC2)c1)c1ccc(Cl)cc1	-2	-2	0.7	2	.	-0.5%	4
O=C(O)c1cccc(CN2C(=O)c3ccccc3C2=O)c1	-4	-9	-3.5	-5	16%	2.7%	-23
